Screens deposited in PubChem by several laboratories.
Calb FLC – affects C. albicans growth with fluconazole; 300,000 tested, 0.57% active; C. albicans CaCi-2 (fluconazole-resistant clinical isolate) + fluconazole, Alamar Blue growth, 48 h; growth inhibition, % (test concentration not listed); AID 1979;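 active = most replicates above 75%; inconclusive = exactly half above 75%; inactive = most below 75%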;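 note: all wells also contain fluconazole at 8 µg/ml as a sub-toxic cotreatment; 0% = median of DMSO wells and 100% = median of geldanamycin control wells; wells of about 8 µL received 7.5 nL stock; the first replicate is given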
T cruzi repl – T. cruzi replication inhibition; T. cruzi beta-gal in NIH3T3, luminescence, 90 h; inhibition, % (test concentration not listed); 300,000 tested, 1.4% active; AID 1885;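 active = mean inhibition across valid replicates above about 55%, limit read from the data; inconclusive = mean below that limit but half or more replicates reach it; inactive = mean below it, under half of replicates reach it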;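 note: signal also drops with host cell toxicity which is not excluded here; 0% = plate median of DMSO wells and 100% = zero luminescence signal; higher percent means less beta-gal luminescence so fewer parasites; stock transfer was 50 nL into about 50 µL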
B2AR ag – human beta-2 adrenergic receptor agonism by FAP; Am2.2-beta2AR cells, FAP receptor internalization, flow cytometry; reference of the scale not given here; AID 504454; response, % (concentration not given with the values); 340,000 tested, 0.43% active;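 active = response above a set limit, near 3 SD of response in nonfluorescent compounds, cut at about 42% in these data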;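 note: stock transfer was 100 nL into about 11 µL; a reference agonist was the positive control; negative values mostly stem from fluorescent compounds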
Target sequence (P07550 whole entry, looked up): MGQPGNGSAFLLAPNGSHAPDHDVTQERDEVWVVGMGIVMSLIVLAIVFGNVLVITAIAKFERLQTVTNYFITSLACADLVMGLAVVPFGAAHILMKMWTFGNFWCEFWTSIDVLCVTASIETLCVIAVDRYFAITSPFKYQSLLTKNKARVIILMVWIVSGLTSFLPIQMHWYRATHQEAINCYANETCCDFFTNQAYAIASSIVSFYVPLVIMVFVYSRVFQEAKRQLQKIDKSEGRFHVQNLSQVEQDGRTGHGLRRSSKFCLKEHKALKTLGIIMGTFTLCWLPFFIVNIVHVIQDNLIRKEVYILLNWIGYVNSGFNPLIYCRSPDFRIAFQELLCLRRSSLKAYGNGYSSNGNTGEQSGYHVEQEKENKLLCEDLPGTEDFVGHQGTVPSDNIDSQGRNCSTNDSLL
ALR inh – blocks human ALR sulfhydryl oxidase activity | P55789 | purified ALR, DTT oxidation, H2O2 HRP-luminol luminescence | inhibition, % (concentration not given with the values) | 290,000 tested, 3.8% active | AID 485317;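 active = mean and each replicate at 75% or more; inconclusive = only one of the two met; inactive = neither met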;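 note: stock transfer was 7.5 nL into about 7.5 µL; 0% = neutral wells and 100% = wells with inactivated enzyme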
Target sequence (P55789 whole entry, looked up): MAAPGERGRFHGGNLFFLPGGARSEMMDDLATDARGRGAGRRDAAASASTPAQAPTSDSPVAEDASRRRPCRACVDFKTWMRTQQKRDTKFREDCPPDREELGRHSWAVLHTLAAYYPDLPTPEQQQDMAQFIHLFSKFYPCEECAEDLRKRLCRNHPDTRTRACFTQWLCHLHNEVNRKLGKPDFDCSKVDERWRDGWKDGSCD
LANA-H2B inh – blocks KSHV LANA binding to histone H2A/H2B | Q9QR71 | inhibition, % (test concentration not listed) | cell-free LANA-H2A/H2B peptide, fluorescence polarization | 320,000 tested, 0.6% active; in the data active = inhibition mostly above about 10%, no sharp cut-off; inactive = mostly below about 6.7%;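 note: stock transfer was 7.5 nL into about 10 µL; 0% = median of vehicle wells and 100% = median of positive control wells; one replicate is shown; the record names a cut of 25% in any replicate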
A1 inh – inhibitors of the anti-apoptotic protein A1, read as caspase activation; caspase activation, % (concentration not given with the values); 330,000 tested, 0.066% active; MEF A1-2A-BIM cells, Caspase-Glo 3/7 luminescence, 3 h; percent of clofoctol response, vehicle zero;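 active = over half of replicate activation scores above 10%, or exactly half above 10 with the replicate mean above 10; inconclusive = replicate mean below 10 yet half the replicates above 10; inactive = over half of replicates below 10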;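 note: wells of about 30 µL received 50 nL stock; many hits fall short of the cut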
Beta cell apopt – beta cell apoptosis inhibition | protection from apoptosis, % (no concentration beside the values) | AID 435005 | INS-1E cytokine-induced death, ATP luminescence, 48 h; percent of positive-control rescue, neutral wells zero | 300,000 tested, 0.8% active;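 active = all replicates at 75% or more, or half of them and the mean; inconclusive = half reach 75% but not the mean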;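 note: 0% = cytokine-treated negative control wells and 100% = positive control rescue; higher means more ATP so stronger rescue from cytokine killing; wells of about 40 µL received 100 nL stock; the first replicate is given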
Ecoli rRNA inh – inhibitors of bacterial rRNA selective over humanized ribosomes; E. coli WT GFP vs humanized-ribosome RFP mutants, fluorescence, 24 h; active compounds read low; DMSO median 0, no signal -100; GFP signal change (wild-type ribosome), % (test concentration not listed); 350,000 tested, 1.6% active; AID 720706;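 active = significant combined selectivity score with lowered wild-type GFP, culture density cut under 30%, mutant RFP and density less affected; inactive = any of these conditions unmet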; note: one replicate is shown; some compounds called inactive have numbers as strong as hits
Ecoli rRNA inh OD600 – recorded beside Ecoli rRNA inh, whose call it bears; OD600 change, %; measured here: OD600 growth;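 optical density of the mix in the first replicate; 0 = DMSO median and -100 = no signal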
Ecoli rRNA inh RFP – further read-out of Ecoli rRNA inh, marked with its call; RFP signal change, %; measured here: RFP humanized mutant strains;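 first replicate; 0 = DMSO median and -100 = no signal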
* hit, by the source's call; ? = inconclusive; . = no result given. This is a subset (hit frequency here may not be typical).

entry	Structure	Calb FLC	T cruzi repl	B2AR ag	ALR inh	LANA-H2B inh	A1 inh	Beta cell apopt	Ecoli rRNA inh	Ecoli rRNA inh OD600	Ecoli rRNA inh RFP
1	O=C(Cn1cnc2c(nnn2-c2ccc(F)cc2)c1=O)NCc1ccco1	-4	-18	4	-3	6.0	0.6	-3	-12	-9	-5.7
2	CC(=O)Nc1ccc(NC(=O)COc2ccccc2C(=O)Nc2cccc(Cl)c2Cl)cc1	-25	18	6	.	.	.	.	4	0	-1.9
3	O=C(CNC(=O)Cc1ccccc1)NCC(=O)OCC(=O)c1ccccc1Cl	8	-12	-1	-13	-4.1	0.4	-1	5	9	0.1
4	CC(C)(C)C(=O)Nc1nc2ccc(S(C)(=O)=O)cc2s1	-3	18	-12	-17	-2.9	1.2	3	.	.	.
5	COc1ccc(CNC(=O)C2CCN(c3nc(OC)nc(OC)n3)CC2)cc1	20	13	-1	-3	-0.3	0.7	-2	.	.	.
6	Cc1cccn2c(=O)c3cc(C#N)c(=N)n(CCCN4CCOCC4)c3nc12	3	12	8	-9	-4.5	-0.5	-1	.	.	.
7	CC(C)(C)c1ccc(C(=O)NCC(=O)OCc2ccc([N+](=O)[O-])cc2)cc1	-27	-12	4	-20	1.5	-0.5	-21	.	.	.
8	Cc1cccn2c(CN(C)CC3Cc4ccccc4O3)c(C(=O)N3CCCCC3)nc12 (stereo not drawn)	-1	11	-15	.	.	0.7	2	-2	-9	2.5
9	NS(=O)(=O)c1ccc(NN=C2CCN(Cc3ccccc3)CC2)c([N+](=O)[O-])c1	-15	5	-7	1	1.8	0.2	1	2	16	-0.5
10	O=C1/C(=C\c2ccc(O)cc2)SC(=S)N1/N=C/c1ccc(O)cc1	-2	-17	-45	21	6.0	-3.6	2	-3	1	1.1
11	O=C(c1cccnc1)N1CCN(Cc2ccccc2Br)CC1	6	.	0	-1	4.2	0.1	-2	.	.	.
12	CCOC(=O)c1ccc(NC(=O)Oc2ccccc2)cc1	-9	-3	11	-2	0.3	0.0	-3	.	.	.
13	NC(=O)c1nsc(C(=O)N(CC(=O)NC2CCCC2)c2cccc(C(F)(F)F)c2)c1N	18	6	3	.	1.9	1.0	2	8	10	1.9
14	O=C(Nc1nc2c(F)c(F)c(F)cc2s1)c1ccco1	46	-20	-7	.	-3.7	-5.7	2	1	7	1.2
15	COc1ccc2[nH]c(=O)c(C(c3nnnn3C3CCCC3)N(C)C3CCCCC3)cc2c1 (stereo not drawn)	0	-9	5	4	-2.2	1.1	.	.	.	.
16	CCN(CC)c1nc(Nc2ccc(Cl)cc2)nc(OCC#N)n1	10	37	-1	-10	3.4	-0.8	9	.	.	.
17	COc1ccc(OC)c(CC(NC(C)=O)C(=O)NC2CCN(c3cc(C)nc4ncnn34)CC2)c1 (stereo not drawn)	-6	-9	.	-16	-0.5	0.0	-1	1	3	-1.2
18	CC(=NCCN1CCNCC1)C1=C(O)CC(C)(C)CC1=O	-6	7	2	0	-2.1	0.2	.	.	.	.
19	CCOC(=O)C(C)Sc1nnc2n1C(C)(C)Cc1ccccc1-2 (stereo not drawn)	-7	6	-1	2	-2.9	-0.4	0	-22*	-13*	-1.4*
20	O=C(CCSc1ccccn1)Nc1ccc(Br)cc1	-21	-1	-6	0	-0.6	?	-2	-20	-53	27
21	COc1c(Cl)ccc(Cl)c1C(=O)NC(=S)N1CCOCC1	-12	-16	-5	.	0.8	0.4	-4	1	2	-1.8
22	N#Cc1ncc(Cl)c2ccccc12	-7	-20	-4	-5	-2.8	0.1	-3	20	18	1.9
23	Cc1ccc(C(=O)O/N=C(\N)c2nonc2N)cc1	-6	-4	3	20	-3.4	0.5	1	2	13	1.3
24	CN(C)CCCN(C(=O)c1ccc(S(=O)(=O)N2CCCCCC2)cc1)c1nc2cc3c(cc2s1)OCCO3	-1	65*	17	-4	-0.2	0.5	.	-30*	-20*	0.2*
25	COCc1nnc(NC(=O)c2cccc(NC(=O)c3ccccc3)c2)s1	4	2	3	7	-0.6	-1.0	1	-12	-11	-1.7
26	O=C(OCC(=O)N1CCC(Cc2ccccc2)CC1)c1ccc(CO)cc1	.	.	-5	.	1.8	0.7	-5	5	-27	-8.9
27	COc1cccc(NC(=O)CSc2nnc(Cn3cnc([N+](=O)[O-])n3)n2C)c1	27	-11	5	.	.	-0.1	-4	.	.	.
28	Cc1cccc(NC(=O)N2CCN(Cc3ccc(Cl)cc3)CC2)c1	2	16	5	-5	-0.8	-1.1	0	-18	-22	-2.2
29	COc1ccccc1OCC(=O)N1CCCC(Nc2cccc(F)c2)C1 (stereo not drawn)	7	1	5	-3	5.0	0.4	.	1	3	3.1
30	COc1cc(C(=O)Nc2cccc(C(C)=O)c2)cc(OC)c1OC	40	1	-4	4	-6.2	0.2	2	1	-10	-1.4
31	CC(c1cccnc1)N(C(=O)Nc1ccccc1)C1CCCCC1 (stereo not drawn)	-7	-20	4	-6	1.4	-1.4	.	-11	-3	-1.5
32	CO/N=C/c1ccc(Oc2ccc([N+](=O)[O-])cc2[N+](=O)[O-])c(OC)c1	32	8	4	.	2.2	-0.4	2	.	.	.
33	O=C(CSc1ccc(-c2ccccc2)nn1)NCc1ccco1	-13	-12	0	.	2.2	0.8	1	.	.	.
34	CC(=O)Nc1ccc(N=Nc2ccc(O)cc2)cc1	-30	-5	0	99*	2.1	0.6	-2	.	.	.
35	CN1/C(=C/C(=O)c2cccs2)Sc2ccccc21	84*	-5	-30	12	1.3	-8.3	.	.	.	.
36	O=C(/C=C/c1cccc([N+](=O)[O-])c1)N1CCN(Cc2ccccc2)CC1	9	1	23	62	-0.9	-2.0	-1	-1	4	-0.4
37	Cc1nc(SCC(=O)NC2CC2)c2c(C)c(C)sc2n1	-2	-6	-15	-1	-2.0	-0.8	-4	4	-4	-0.6
38	Cc1c(NC(=O)c2c([N+](=O)[O-])cnn2C)c(=O)n(-c2ccccc2)n1C	0	-6	-7	-15	4.8	1.0	.	7	10	-2.4
39	CC1CCc2sc(C(=O)NN)cc2C1 (stereo not drawn)	?	-3	3	31	-0.1	-0.2	2	-1	-7	-0.8
40	CCn1cc(C(=O)O)c(=O)c2cc(F)c(N3CCN(C(=S)NC(=O)c4cccc(C)c4)CC3)cc21	1	6	11	-2	2.0	0.6	-1	-58	-80	-24
41	Cc1cc2oc(C(=O)Nc3c(C)n(C)n(-c4ccccc4)c3=O)c(C)c2cc1Cl	46	10	3	6	-10	-0.2	0	-7	-9	-2.2
42	Cc1ccc(Nc2nc(NCC3CCCO3)nc(N)c2[N+](=O)[O-])cc1 (stereo not drawn)	11	-3	-5	1	2.2	-0.3	-7	.	.	.
43	COC(=O)c1sc2nc(SCc3cccc(Cl)c3)n(N)c(=O)c2c1C	-8	7	-6	-6	3.9	1.9	0	9	6	8.0
44	Cc1ccccc1-n1c([C@@H]2C[C@H]2c2ccccc2)n[nH]c1=S	35	-13	-8	38	4.1	0.5	0	-28*	-20*	2.1*
45	O=C(COC(=O)c1c2c(nc3ccccc13)CCCC2)Nc1ccc2c(c1)OCO2	10	13	12	-8	-19	0.1	9	.	.	.
46	COc1ccc(-c2cccc(C(=O)N3CCOCC3)c2)cc1	-1	9	-3	-12	-1.5	-0.2	-3	13	11	0.6
47	Nc1nnc(CC(=O)N/N=C/c2ccccc2OCc2ccc(F)cc2)s1	-4	-22	-1	-6	0.6	0.3	.	-6	-3	2.7
48	COc1cccc(CNC(C)C(=O)Nc2ccc(S(=O)(=O)N3CCCC3)cc2)c1 (stereo not drawn)	.	.	2	-1	-0.5	-0.4	1	9	11	-1.1
49	Cc1ccc(OCC(=O)NC(=S)Nc2cccc(NC(=O)c3ccc(Cl)cc3Cl)c2)cc1	3	-1	-3	2	-4.3	-0.3	9	.	.	.
50	CCOc1cc(CNCc2ccncc2)cc(Br)c1OCc1ccccc1F	-1	17	7	-14	-5.7	0.3	28	.	.	.

(more compounds)
entry	Structure	Calb FLC	T cruzi repl	B2AR ag	ALR inh	LANA-H2B inh	A1 inh	Beta cell apopt	Ecoli rRNA inh	Ecoli rRNA inh OD600	Ecoli rRNA inh RFP
51	O=C(Cc1c(C(=O)O)[nH]c2ccccc12)NCCN1CCN(c2ccccc2F)CC1	2	-7	-1	0	0.0	0.4	-8	.	.	.
52	CCCNC(=O)OC[C@H]1O[C@H](CCO/N=C/[C@@H](OC)[C@H](C)/C=C/CC(=O)OC)C=C[C@@H]1Oc1ccc(OC)cc1	-9	17	.	.	0.2	-0.5	0	.	.	.
53	COc1ccc(C(=O)NC(=S)Nc2cccc3cc(O)ccc23)cc1OC	3	-26	10	39	-0.7	-0.1	-3	-1	-12	-7.1
54	O=C(c1cc(-c2ccc(O)cc2)on1)N1CCN(c2ccccc2)CC1	6	-9	4	81*	-2.3	-0.2	-1	.	.	.
55	COc1ccc(OC)c(/C=N/NC(=O)CCN2CCN(C(c3ccccc3)c3ccccc3)CC2)c1	-3	5	4	0	-8.4	1.4	.	.	.	.
56	COCCn1c(-c2ccccc2)nc2c(c(=O)c3ccccc3n2C)c1=O	-7	21	.	-5	-0.5	1.1	1	.	.	.
57	Cc1cc(NC(=O)C2CC(=O)OC2c2ccccc2)no1 (stereo not drawn)	-1	-9	2	0	-10	0.4	-4	.	.	.
58	CCCN(CC(=O)Nc1ccc(F)c(F)c1F)C(=O)C1=COCCO1	7	5	0	-5	3.5	0.8	-2	5	4	-3.0
59	COc1ccc(C2NC(=O)NC(C)=C2C(=O)OCc2ccccc2)cc1 (stereo not drawn)	9	-10	-14	-12	1.8	0.0	-2	-5	6	-4.9
60	O=C1CCCC/C1=C/Nc1cccc(C(F)(F)F)c1	-5	4	-4	1	1.8	-0.1	0	4	13	1.2
61	COc1ccccc1NC(=O)Nc1nn(C)c2cccc(N(C)C)c12	12	28	10	.	-0.7	0.5	2	-30*	1.0*	0.6*
62	N#Cc1c2c(c(NCc3cccnc3)n3c1nc1ccccc13)CCC2	0	26	-12	.	1.9	-0.9	5	.	.	.
